rRNA inh HTS = selective bacterial rRNA inhibition in E. coli; E. coli WT GFP vs humanized-ribosome RFP mutants, fluorescence, 24 h; active compounds read low; DMSO median 0, no signal -100; GFP signal change (wild-type ribosome), % (concentration not given with the values); hit rate 1.6% among 350,000; AID 720706;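 active means significant combined selectivity score with lowered wild-type GFP, culture density cut under 30%, mutant RFP and density less affected; inactive means any of these conditions unmet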; further: one replicate is shown; some compounds called inactive have numbers as strong as hits
T cruzi repl = blocks replication of Trypanosoma cruzi; T. cruzi beta-gal in NIH3T3, luminescence, 90 h; inhibition, % (concentration not given with the values); hit rate 1.4% among 300,000; AID 1885;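 active means mean inhibition across valid replicates above about 55%, limit read from the data; inconclusive means mean below that limit but half or more replicates reach it; inactive means mean below it, under half of replicates reach it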;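 further: signal also drops with host cell toxicity which is not excluded here; 0% = plate median of DMSO wells and 100% = zero luminescence signal; higher percent means less beta-gal luminescence so fewer parasites; stock transfer was 50 nL into about 50 µL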
RanGTP-Imp inh = inhibitors of RanGTP-importin-beta interaction, primary screen, biochemical, FRET, CFP-Ran, YFP-importin-beta, homogeneous; cell-free CFP-Ran/YFP-importin-beta FRET ratio; inhibition, % (concentration not given with the values); hit rate 1.1% among 300,000;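 active means most replicates above 15%; inconclusive means exactly half above 15%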;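 further: 0% = DMSO wells and 100% = Ran loaded with GDP instead of GTP; wells of about 40 µL received 100 nL stock; the first replicate is given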
Vif TR-FRET = HIV-1 Vif–A3G interaction blockers – biochemical, TR-FRET, GST-Vif 1-94, biotin-A3G peptide, dose response retest, primary screen (AID 1117319) | TR-FRET GST-Vif / biotin-A3G peptide binding; higher % means a stronger effect; test concentration not given here; strong numbers were not always called active | inhibition, %; hits with a dose series show IC50 in µM | hit rate 0.57% among 260,000;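 active means above the screen mean plus three standard deviations and confirmed in dose response; inconclusive means results disagree or hit not tested in dose response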;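 further: Vif residues 1-94 fused to GST binding biotinylated APOBEC3G peptide 110-148; 0% = full assay without inhibitor and 100% = GST in place of GST-Vif; retest series ran down from 100 µM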
AF4-AF9 inh = inhibitors of human MLL-AF4/AF9 interaction; P42568; AlphaScreen, biotin-AF4 peptide binding to FLAG-AF9; inhibition, % at 10 µM; hit rate 0.47% among 350,000; AID 651704;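 active means every replicate reaching a set inhibition limit, whatever the replicate mean, cut at about 25% in these data; inconclusive means mean inhibition reaches that limit but some replicates miss it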;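 further: 0% = plate neutral control median and 100% = total signal loss; the record names both 10 and 1 µM as test concentration; the first replicate is given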
Target sequence (P42568 whole entry, looked up): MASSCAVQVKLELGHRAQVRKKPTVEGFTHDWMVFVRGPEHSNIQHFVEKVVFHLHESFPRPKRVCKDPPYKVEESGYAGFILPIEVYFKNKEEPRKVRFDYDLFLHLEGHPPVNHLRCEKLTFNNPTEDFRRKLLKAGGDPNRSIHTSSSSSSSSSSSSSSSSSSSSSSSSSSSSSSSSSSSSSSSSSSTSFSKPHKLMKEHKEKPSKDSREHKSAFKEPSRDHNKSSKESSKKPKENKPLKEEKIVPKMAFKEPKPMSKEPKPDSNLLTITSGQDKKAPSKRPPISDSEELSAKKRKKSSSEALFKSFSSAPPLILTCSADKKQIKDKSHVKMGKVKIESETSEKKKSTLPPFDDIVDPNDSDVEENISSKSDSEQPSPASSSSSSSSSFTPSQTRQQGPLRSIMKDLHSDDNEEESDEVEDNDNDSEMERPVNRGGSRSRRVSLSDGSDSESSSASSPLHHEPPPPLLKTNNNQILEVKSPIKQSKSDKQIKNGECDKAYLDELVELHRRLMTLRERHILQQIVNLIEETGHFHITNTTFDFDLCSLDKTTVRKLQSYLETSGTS
Beta cell apopt = blocks beta cell apoptosis; INS-1E cytokine-induced death, ATP luminescence, 48 h; percent of positive-control rescue, neutral wells zero; protection from apoptosis, % (concentration not given with the values); hit rate 0.8% among 300,000; AID 435005;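 active means all replicates at 75% or more, or half of them and the mean; inconclusive means half reach 75% but not the mean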;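 further: 0% = cytokine-treated negative control wells and 100% = positive control rescue; higher means more ATP so stronger rescue from cytokine killing; wells of about 40 µL received 100 nL stock; the first replicate is given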
Calb FLC = affects C. albicans growth with fluconazole; C. albicans CaCi-2 (fluconazole-resistant clinical isolate) + fluconazole, Alamar Blue growth, 48 h; hit rate 0.57% among 300,000; growth inhibition, % (test concentration not listed);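 active means most replicates above 75%; inconclusive means exactly half above 75%; inactive means most below 75%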;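 further: all wells also contain fluconazole at 8 µg/ml as a sub-toxic cotreatment; 0% = median of DMSO wells and 100% = median of geldanamycin control wells; wells of about 8 µL received 7.5 nL stock; the first replicate is given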
A1 inh = inhibitors of the anti-apoptotic protein A1, read as caspase activation. hit rate 0.066% among 330,000. MEF A1-2A-BIM cells, Caspase-Glo 3/7 luminescence, 3 h; percent of clofoctol response, vehicle zero. caspase activation, % (concentration not given with the values). AID 2462;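 active means over half of replicate activation scores above 10%, or exactly half above 10 with the replicate mean above 10; inconclusive means replicate mean below 10 yet half the replicates above 10; inactive means over half of replicates below 10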;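 further: wells of about 30 µL received 50 nL stock; many hits fall short of the cut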
rRNA inh HTS OD600 = also measured in rRNA inh HTS; calls as there; OD600 change, %; measured here: OD600 growth;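 optical density of the mix in the first replicate; 0 = DMSO median and -100 = no signal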
rRNA inh HTS RFP = further read-out of rRNA inh HTS, marked with its call; RFP signal change, %; measured here: RFP humanized mutant strains;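 first replicate; 0 = DMSO median and -100 = no signal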
The depositor's hits bear a star; ? = inconclusive; / = not tested or not shown; & = joins results of further samples. This is a subset (hit frequency here may not be typical).

Letters: A = rRNA inh HTS; B = rRNA inh HTS OD600; C = rRNA inh HTS RFP; D = T cruzi repl; E = RanGTP-Imp inh; F = Vif TR-FRET; G = AF4-AF9 inh; H = Beta cell apopt; I = Calb FLC; J = A1 inh
COc1cc2c(c(OC)c1OC)-c1c(cc3c(c1OC)OCO3)[C@@H](OC(C)=O)[C@H](C)[C@H](C)C2
  A: -42*; B: -22*; C: -15*; D: 9; E: -1.0; F: -10%; G: 4.4; H: -6; I: 2; J: -0.3

O=C(NCCc1c[nH]c2ccccc12)c1cccnc1
  A: 1; B: 8; C: -0.3; D: 1; E: 6.5; F: 14%; G: 2.1; H: 1; I: -13; J: -0.5

C1CCC(C(CC2CCCCN2)C2CCCCC2)CC1 (stereo not given)
  A: -57; B: -82; C: -17; D: 56*; E: -0.4; F: 26%; G: 12&4.8; H: 90*; I: /; J: 1.3

NC(=O)c1cccc(-c2cc(Nc3ccc(OC(F)(F)F)cc3)ncn2)c1
  A: -13; B: -4; C: -1.1; D: 3; E: 0.4; F: /; G: -0.3; H: 7; I: 6; J: -1.4

c1ccc(CC2=NCCN2)cc1
  A: /; B: /; C: /; D: -20; E: 1.2; F: 9%; G: 0.8; H: 0; I: /; J: 1.9

CCN(CC)CCOC(=O)C1(c2ccccc2)CCCC1
  A: /; B: /; C: /; D: 8; E: 2.8; F: 8%; G: /; H: -10; I: 3; J: 0.2

c1ccc(CN(CC2=NCCN2)c2ccccc2)cc1
  A: 6; B: 4; C: 0.7; D: 5&-1; E: ?; F: 21%&-2%; G: 3.0&6.4&-0.4; H: -2&0; I: /; J: -0.5&2.9

CC(COc1ccccc1)NC(C)C(O)c1ccc(O)cc1 (stereo not given)
  A: 15; B: 16; C: 2.2; D: -8; E: -3.1; F: -3%; G: -3.7; H: -1; I: /; J: 0.0

O=C(c1ccc(F)cc1)C1CCN(CCn2c(=O)[nH]c3ccccc3c2=O)CC1
  A: /; B: /; C: /; D: -9; E: -3.7; F: 10%; G: -1.0&0.1; H: 0; I: 17; J: 0.4

CCOc1ccc(C(=O)OCCN(CC)CC)cc1
  A: /; B: /; C: /; D: -11; E: 1.2; F: -1%; G: /; H: -15; I: -36; J: 0.1

CC[N+](C)(CC)CCOC(=O)C(O)(c1ccccc1)C1CCCCC1 (stereo not given)
  A: 10; B: 9; C: 2.5; D: 4; E: -2.2; F: -1%; G: -2.1&4.9; H: 1; I: /; J: 0.1

CCC(C)n1ncn(-c2ccc(N3CCN(c4ccc(OCC5COC(Cn6cncn6)(c6ccc(Cl)cc6Cl)O5)cc4)CC3)cc2)c1=O (stereo not given)
  A: /; B: /; C: /; D: 55*; E: 2.6; F: -1%; G: -1.1&3.4; H: -2; I: /; J: 0.6

CCCn1cnc2c1c(=O)n(CCCCC(C)=O)c(=O)n2C
  A: 0; B: 7; C: -1.6; D: -5; E: 4.3; F: /; G: -1.2; H: -1; I: 18; J: 1.0

OCCN1CCN(CCCN2c3ccccc3Sc3ccc(Cl)cc32)CC1
  A: -57; B: -78; C: -17; D: 5; E: 3.5; F: 33%; G: 40*; H: 4; I: /; J: 1.4

Cc1c(NC(=O)c2cccnc2)c(=O)n(-c2ccccc2)n1C
  A: /; B: /; C: /; D: -5; E: -0.4; F: -6%; G: -1.5; H: 0; I: -5; J: 0.1

CC(C(=O)O)c1ccc(C(=O)c2cccs2)cc1 (stereo not given)
  A: 8; B: 7; C: -1.0; D: /; E: /; F: /; G: -3.6; H: -2; I: /; J: -1.8

CCN(CC)CCNC(=O)c1cc(Cl)c(N)cc1OC
  A: -28; B: -29; C: -0.2; D: 11; E: -5.1; F: -3%; G: -0.8&-2.6; H: -7; I: /; J: 0.2

CC1(C)Cc2c(sc(NC(=S)NC(=O)c3ccccc3)c2C(=O)O)CO1
  A: -4; B: 10; C: -1.6; D: -9; E: 4.3; F: -8%; G: -3.8; H: -5; I: -9; J: -0.1

CC(=O)NC(Cc1ccccc1)C(=O)O (stereo not given)
  A: 9; B: -1; C: 12; D: -24; E: 5.4; F: 32%; G: -2.1; H: -5; I: 0; J: 0.1

CN(C)CCOC(C)(c1ccccc1)c1ccccn1 (stereo not given)
  A: /; B: /; C: /; D: -21; E: -1.2; F: -4%&-3%; G: 2.3; H: 1; I: /; J: 1.1

Arranged by SMILES length (falling): 12 of the compounds above.
Letters: A = rRNA inh HTS; B = rRNA inh HTS OD600; C = rRNA inh HTS RFP; D = T cruzi repl; E = RanGTP-Imp inh; F = Vif TR-FRET; G = AF4-AF9 inh; H = Beta cell apopt; I = Calb FLC; J = A1 inh
CCC(C)n1ncn(-c2ccc(N3CCN(c4ccc(OCC5COC(Cn6cncn6)(c6ccc(Cl)cc6Cl)O5)cc4)CC3)cc2)c1=O (stereo not given)
  A: /; B: /; C: /; D: 55*; E: 2.6; F: -1%; G: -1.1&3.4; H: -2; I: /; J: 0.6

O=C(c1ccc(F)cc1)C1CCN(CCn2c(=O)[nH]c3ccccc3c2=O)CC1
  A: /; B: /; C: /; D: -9; E: -3.7; F: 10%; G: -1.0&0.1; H: 0; I: 17; J: 0.4

CC1(C)Cc2c(sc(NC(=S)NC(=O)c3ccccc3)c2C(=O)O)CO1
  A: -4; B: 10; C: -1.6; D: -9; E: 4.3; F: -8%; G: -3.8; H: -5; I: -9; J: -0.1

CC[N+](C)(CC)CCOC(=O)C(O)(c1ccccc1)C1CCCCC1 (stereo not given)
  A: 10; B: 9; C: 2.5; D: 4; E: -2.2; F: -1%; G: -2.1&4.9; H: 1; I: /; J: 0.1

OCCN1CCN(CCCN2c3ccccc3Sc3ccc(Cl)cc32)CC1
  A: -57; B: -78; C: -17; D: 5; E: 3.5; F: 33%; G: 40*; H: 4; I: /; J: 1.4

CCCn1cnc2c1c(=O)n(CCCCC(C)=O)c(=O)n2C
  A: 0; B: 7; C: -1.6; D: -5; E: 4.3; F: /; G: -1.2; H: -1; I: 18; J: 1.0

CC(COc1ccccc1)NC(C)C(O)c1ccc(O)cc1 (stereo not given)
  A: 15; B: 16; C: 2.2; D: -8; E: -3.1; F: -3%; G: -3.7; H: -1; I: /; J: 0.0

CCN(CC)CCNC(=O)c1cc(Cl)c(N)cc1OC
  A: -28; B: -29; C: -0.2; D: 11; E: -5.1; F: -3%; G: -0.8&-2.6; H: -7; I: /; J: 0.2

c1ccc(CN(CC2=NCCN2)c2ccccc2)cc1
  A: 6; B: 4; C: 0.7; D: 5&-1; E: ?; F: 21%&-2%; G: 3.0&6.4&-0.4; H: -2&0; I: /; J: -0.5&2.9

CN(C)CCOC(C)(c1ccccc1)c1ccccn1 (stereo not given)
  A: /; B: /; C: /; D: -21; E: -1.2; F: -4%&-3%; G: 2.3; H: 1; I: /; J: 1.1

CCOc1ccc(C(=O)OCCN(CC)CC)cc1
  A: /; B: /; C: /; D: -11; E: 1.2; F: -1%; G: /; H: -15; I: -36; J: 0.1

CC(=O)NC(Cc1ccccc1)C(=O)O (stereo not given)
  A: 9; B: -1; C: 12; D: -24; E: 5.4; F: 32%; G: -2.1; H: -5; I: 0; J: 0.1

Next compounds.
Letters: A = rRNA inh HTS; B = rRNA inh HTS OD600; C = rRNA inh HTS RFP; D = T cruzi repl; E = RanGTP-Imp inh; F = Vif TR-FRET; G = AF4-AF9 inh; H = Beta cell apopt; I = Calb FLC; J = A1 inh
CN1CCOC(c2ccccc2)c2ccccc2C1 (stereo not given)
  A: /; B: /; C: /; D: -2; E: 0.5; F: /; G: 0.7; H: 0; I: /; J: 0.0

CC(=O)OCC1=C[C@@H]2OC(=O)C3=CO[C@@H](O[C@@H]4O[C@H](CO)[C@@H](O)[C@H](O)[C@H]4O)[C@H]1[C@@H]32
  A: 12; B: 8; C: 26; D: /; E: /; F: /; G: -7.3; H: -2; I: /; J: 1.8

CCOc1ccc(NC(=O)Cn2cc(C(=O)c3ccco3)c3ccccc32)cc1
  A: /; B: /; C: /; D: -4; E: 2.4; F: 1%; G: /; H: -4; I: -2; J: 0.5

CC(=O)c1ccc(S(=O)(=O)NC(=O)NC2CCCCC2)cc1
  A: 7; B: 18; C: -0.4; D: /; E: /; F: /; G: -5.6; H: -11; I: /; J: 0.8

CN1CCN(CCC(=O)N2c3ccccc3Sc3ccc(C(F)(F)F)cc32)CC1
  A: /; B: /; C: /; D: 27; E: -4.9; F: 5%; G: /; H: 2; I: 3; J: -0.5

CN1CCN(C(c2ccccc2)c2ccccc2)CC1
  A: 1; B: 1; C: -3.3; D: /; E: /; F: /; G: 1.2; H: 0; I: /; J: -0.1

NC(=O)c1cn(Cc2c(F)cccc2F)nn1
  A: 5; B: -9; C: 0.0; D: 1; E: 4.1; F: /; G: 4.3; H: 0; I: -3; J: 0.8

Cc1cc(-c2ccccc2)nnc1NCCN1CCOCC1
  A: /; B: /; C: /; D: 0; E: 0.7; F: ?; G: -0.5; H: 1; I: /; J: -0.7

OC(C#CCN1CCCC1)(c1ccccc1)c1ccccc1
  A: 15; B: 15; C: -0.6; D: -3; E: -0.3; F: /; G: 0.0; H: 1; I: -2; J: 0.7

COc1ccc(/C=C/C(=O)Nc2ccccc2C(=O)O)cc1OC
  A: /; B: /; C: /; D: 4; E: -2.1; F: 3%&-3%; G: -3.7; H: /; I: /; J: -8.6

O=C(CCN1CCC(c2ccccc2)C1)c1ccc2c(c1)OCCO2 (stereo not given)
  A: /; B: /; C: /; D: 23; E: -4.3; F: 0%; G: 2.0; H: /; I: -13; J: /

CC12CCC(CC1)C(C)(C)O2
  A: /; B: /; C: /; D: -2; E: -3.6; F: /; G: -1.9; H: -2; I: 6; J: -0.6

COC(=O)c1ccc(O)cc1
  A: 3; B: 8; C: -2.1; D: -17; E: 1.9; F: -2%; G: 2.5; H: /; I: 4; J: /

High-throughput results: PubChem BioAssay, several laboratories
